Compound activity: PubChem BioAssay, Broad Institute
FGF22 binding = shifts melting point of recombinant human FGF22; Q9HCT0; recombinant FGF22 thermal shift, SYPRO orange fluorescence; percent of sucrose octasulfate shift, DMSO zero; calls only at 9.99 µM; 340,000 tested, 1.5% active;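 active means melting point raised past a set limit in the mean and every replicate; three in four hits are not shown here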
Target sequence (Q9HCT0 whole entry, looked up): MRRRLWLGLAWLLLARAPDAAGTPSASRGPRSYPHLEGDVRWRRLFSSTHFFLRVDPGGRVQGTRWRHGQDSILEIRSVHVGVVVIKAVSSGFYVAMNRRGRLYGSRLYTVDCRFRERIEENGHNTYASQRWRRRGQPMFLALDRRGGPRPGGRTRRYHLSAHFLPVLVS
Calls only; i = inactive. A portion of the library; count on the stated rates, not on these rows.

The opening 5 compounds as a preview:
FGF22 binding	canonical_smiles
i	CO[C@H](CN(C)C(=O)Nc1ccc(F)cc1)[C@H](C)CN(Cc1ccccc1Cl)[C@@H](C)CO
i	C[C@H]1CN([C@@H](C)CO)C(=O)c2cc(NC(=O)NC3CCCCC3)ccc2O[C@H]1CN(C)Cc1ccccc1
i	C[C@H]1CN([C@@H](C)CO)C(=O)c2cc(-c3ccc(C(=O)N(C)C)cc3)cnc2O[C@@H]1CN(C)C(=O)c1cccnc1
i	Cc1ccc(C(=O)NC2CCCCN(C)C2=O)cc1 (stereo not drawn)
i	O=C(N[C@@H]1CC[C@H](CCNS(=O)(=O)c2cccc(Cl)c2)O[C@H]1CO)c1ccc(F)cc1

Main list, from the start:
FGF22 binding	canonical_smiles
i	CO[C@H](CN(C)C(=O)Nc1ccc(F)cc1)[C@H](C)CN(Cc1ccccc1Cl)[C@@H](C)CO
i	C[C@H]1CN([C@@H](C)CO)C(=O)c2cc(NC(=O)NC3CCCCC3)ccc2O[C@H]1CN(C)Cc1ccccc1
i	C[C@H]1CN([C@@H](C)CO)C(=O)c2cc(-c3ccc(C(=O)N(C)C)cc3)cnc2O[C@@H]1CN(C)C(=O)c1cccnc1
i	Cc1ccc(C(=O)NC2CCCCN(C)C2=O)cc1 (stereo not drawn)
i	O=C(N[C@@H]1CC[C@H](CCNS(=O)(=O)c2cccc(Cl)c2)O[C@H]1CO)c1ccc(F)cc1
i	C[C@H](CO)N1C[C@H](C)[C@@H](CN(C)S(=O)(=O)c2ccc(F)cc2)Oc2ccc(NS(C)(=O)=O)cc2C1=O
i	C[C@H](CO)N1C[C@H](C)[C@H](CN(C)S(=O)(=O)c2cn(C)cn2)Oc2c(NC(=O)C3CC3)cccc2C1=O
i	COc1ccc2c3c([nH]c2c1)[C@@H](CO)N(C(=O)CN(C)C)CC31CCN(C(=O)c2ccncc2)CC1
i	CN1C(=O)c2cc(NC(=O)NC3CCCC3)ccc2OC[C@H]2O[C@H](CC(=O)NCC3CC3)CC[C@@H]21
i	COCC#Cc1cnc2c(c1)C(=O)N([C@@H](C)CO)C[C@@H](C)[C@@H](CN(C)C(C)=O)O2
i	CC(C)(C)[S@](=O)N1Cc2cc(C(=O)N3CCc4ccccc4C3)nc(-c3cccc(-c4cncnc4)c3)c2[C@@H]1CCO
i	COc1ccc(CN(C)C[C@@H]2OCCCC[C@@H](C)Oc3ccc(NC(=O)Nc4ccc(F)cc4)cc3C(=O)N([C@@H](C)CO)C[C@H]2C)cc1
i	CC(C)(C)[S@](=O)N1Cc2cc(C(=O)N[C@H]3CCN(Cc4ccccc4)C3)nc(-c3cccc(-c4ccncc4)c3)c2[C@@H]1CCO
i	Cc1noc(C)c1S(=O)(=O)Nc1ccc2c(c1)C(=O)N([C@H](C)CO)C[C@@H](C)[C@@H](CN(C)C(=O)NC(C)C)OCCCC[C@H](C)O2
i	C[C@@H](O)C#Cc1cnc2c(c1)C(=O)N([C@@H](C)CO)C[C@H](C)[C@@H](CN(C)C(=O)CN1CCOCC1)O2
i	C[C@@H]1CN([C@@H](C)CO)S(=O)(=O)c2ccc(C#C[C@@H](C)O)cc2O[C@@H]1CN(C)C(=O)c1ccncc1
i	C[C@H](CO)N1C[C@H](C)[C@@H](CN(C)C(=O)Nc2cccc3ccccc23)Oc2ccc(NC(=O)Cn3cnnn3)cc2C1=O
i	NCC[C@@H]1CC[C@@H](NC(=O)NC2CCCCC2)[C@H](CO)O1
i	CC(C)NC(=O)N(C)C[C@H]1Oc2ccc(NC(=O)Cc3ccccc3)cc2C(=O)N([C@@H](C)CO)C[C@@H]1C
i	C[C@H](CO)N1C[C@H](C)[C@@H](CN(C)C)Oc2cc(-c3cccnc3)ccc2S1(=O)=O
i	CC(C)NC(=O)Nc1ccc2c(c1)C(=O)N([C@@H](C)CO)C[C@@H](C)[C@@H](CN(C)Cc1ccc(C(F)(F)F)cc1)OCCCC[C@@H](C)O2
i	CC=Cc1ccc2n(c1=O)C[C@@H]1[C@@H](CO)[C@H](C(=O)NC3Cc4ccccc4C3)[C@H]2N1C(C)=O (mixture of isomers)
i	O=C(NCC[C@H]1CC[C@@H](NC(=O)C2CCC2)[C@H](CO)O1)c1ccc(F)cc1
i	Cc1noc(C)c1NC(=O)N(C)C[C@H]1Oc2ccc(NC(=O)Nc3ccc4c(c3)OCO4)cc2C(=O)N([C@H](C)CO)C[C@H]1C
i	COC(=O)C[C@H]1CC[C@H]2[C@H](COc3ccc(NC(=O)c4cccc(OC)c4)cc3C(=O)N2C)O1
i	C[C@@H]1CN([C@H](C)CO)C(=O)c2cc(NC(=O)CCC(F)(F)F)ccc2O[C@H]1CN(C)Cc1ccc(-c2ccccc2)cc1
i	C[C@H](CO)N1C[C@H](C)[C@@H](CN(C)Cc2ccc(Cl)c(Cl)c2)Oc2ccc(NS(=O)(=O)c3cccs3)cc2C1=O
i	COc1ccc(S(=O)(=O)Nc2cccc3c2O[C@@H](CN(C)S(=O)(=O)c2ccc(OC)cc2)[C@@H](C)CN([C@H](C)CO)C3=O)cc1
i	COc1ccc(CNC(=O)C[C@H]2C[C@@H]3c4cc(NC(=O)C5CCC5)ccc4O[C@@H]3[C@@H](CO)O2)cc1
i	COc1ccc(S(=O)(=O)N(C)C[C@@H]2Oc3ccc(NC(=O)Cc4cn(C)c5ccccc45)cc3C(=O)N([C@H](C)CO)C[C@@H]2C)cc1
i	CCC(=O)N1C[C@@H]2[C@H](c3ccccc31)[C@H](CO)N2Cc1cc(F)ccc1F
i	C[C@H](O)C#Cc1ccc([C@H]2[C@H]3CN(C(=O)Nc4ccccc4)CCCCN3[C@H]2CO)cc1
i	CC(C)NC(=O)N(C)C[C@H]1Oc2ncc(-c3cccc(C#N)c3)cc2C(=O)N([C@@H](C)CO)C[C@@H]1C
i	C[C@@H]1CCCCO[C@@H](CN(C)C(=O)c2ccncc2)[C@H](C)CN([C@@H](C)CO)C(=O)c2cc(N(C)C)ccc2O1
i	CC(C)NC(=O)N1CC(=O)N2[C@@H](CO)[C@H](c3ccc(/C=C/c4ccccc4)cc3)[C@@H]2C1
i	COc1ccc(NC(=O)N(C)C[C@@H]2Oc3ccc(NC(=O)CCCN(C)C)cc3C(=O)N([C@@H](C)CO)C[C@@H]2C)cc1
i	C[C@H]1CN([C@@H](C)CO)C(=O)c2cc(NS(=O)(=O)c3ccccc3)ccc2O[C@H]1CN(C)C(=O)Nc1cccc2ccccc12
i	COc1cccc(C(=O)Nc2ccc3c(c2)C(=O)N(C)[C@@H]2CC[C@@H](CC(=O)NCc4ccccc4F)O[C@@H]2CO3)c1
i	Cc1noc(C)c1NC(=O)Nc1cccc2c1O[C@H](CN(C)Cc1ccc(C(F)(F)F)cc1)[C@@H](C)CN([C@@H](C)CO)C2=O
i	CCC(=O)N(C)C[C@@H]1Oc2cc(/C=C/c3ccccc3)ccc2S(=O)(=O)N([C@@H](C)CO)C[C@H]1C
i	Cc1ccc(S(=O)(=O)N(C)C[C@@H]2OCCCC[C@@H](C)Oc3ccc(NC(=O)NC4CCCCC4)cc3C(=O)N([C@@H](C)CO)C[C@@H]2C)cc1
i	COc1ccc2c3c(n(C)c2c1)[C@H](CO)N(C(=O)C1CCC1)CC31CN(Cc2cccc(F)c2)C1
i	CC(C)NC(=O)Nc1ccc2c(c1)C(=O)N([C@@H](C)CO)C[C@@H](C)[C@@H](CN(C)C)OCCCC[C@@H](C)O2
i	COc1ccccc1CNC(=O)C[C@@H]1C[C@@H]2c3cc(NC(=O)Nc4ccccc4F)ccc3O[C@@H]2[C@H](CO)O1
i	C[C@H]1CN([C@@H](C)CO)C(=O)Cc2cc(NC(=O)C3CC3)ccc2O[C@H]1CN(C)Cc1ccc(Cl)c(Cl)c1
i	CO[C@H]1CN(C)C(=O)c2cc(NC(=O)c3nc4ccccc4s3)ccc2OC[C@H](C)N(Cc2cccnc2)C[C@@H]1C
i	COc1ccc2c3c([nH]c2c1)[C@@H](CO)N(C(=O)Nc1ccc(F)cc1)CC31CCN(S(=O)(=O)c2cccc(C)c2)CC1
i	C[C@H]1CN([C@@H](C)CO)C(=O)c2cccc(NC(=O)c3nc4ccccc4s3)c2O[C@H]1CN(C)Cc1ccc(-c2ccccc2)cc1
i	CCCC(=O)Nc1ccc2c(c1)C(=O)N(C)C[C@@H](OC)[C@H](C)CN(C(=O)c1cccnc1)[C@@H](C)CO2
i	C[C@@H]1CCCCO[C@@H](CN(C)CC2CCCCC2)[C@H](C)CN([C@H](C)CO)C(=O)c2cc(NC(=O)Nc3ccccc3)ccc2O1
i	COc1ccc(NC(=O)N(C)C[C@H]2Oc3ccc(NC(=O)Cn4cnnn4)cc3CC(=O)N([C@@H](C)CO)C[C@@H]2C)cc1
i	CCCC(=O)Nc1ccc2c(c1)C(=O)N(C)C[C@@H](OC)[C@@H](C)CN(Cc1ccccc1F)[C@@H](C)CO2
i	CN(C)Cc1cn(CC[C@@H]2CC[C@@H](NS(=O)(=O)c3ccc(-c4ccccc4)cc3)[C@H](CO)O2)nn1
i	Cc1cc(C(=O)Nc2cccc3c2O[C@H](CN(C)S(=O)(=O)c2ccc(Cl)cc2)[C@@H](C)CN([C@@H](C)CO)C3=O)n(C)n1
i	C[C@H](CO)N1C[C@H](C)[C@H](CN(C)Cc2ccc(C(=O)O)cc2)Oc2c(NC(=O)C3CCOCC3)cccc2C1=O
i	C[C@@H]1CN([C@H](C)CO)C(=O)c2cc(-c3cccc(F)c3)cnc2O[C@H]1CN(C)S(C)(=O)=O
i	CNC[C@H]1Oc2cc(C#C[C@H](C)O)ccc2S(=O)(=O)N([C@H](C)CO)C[C@@H]1C
i	Cc1cc(CN2CCN(c3ncc(Cc4ccccc4)cn3)CC2)cc(C)c1O
i	COc1cccc(S(=O)(=O)N[C@H]2C=C[C@@H](CC(=O)NCc3ccc(Cl)cc3)O[C@@H]2CO)c1
i	C[C@@H]1CN([C@@H](C)CO)C(=O)c2cc(NC(=O)CCN3CCOCC3)ccc2O[C@H]1CN(C)S(=O)(=O)c1ccc(F)cc1

Some of the entries so far, as a markdown table.
| Compound | FGF22 binding |
| --- | --- |
| CCCC(=O)Nc1ccc2c(c1)C(=O)N(C)C[C@@H](OC)[C@H](C)CN(C(=O)c1cccnc1)[C@@H](C)CO2 | i |
| C[C@@H]1CCCCO[C@@H](CN(C)CC2CCCCC2)[C@H](C)CN([C@H](C)CO)C(=O)c2cc(NC(=O)Nc3ccccc3)ccc2O1 | i |
| COc1ccc(NC(=O)N(C)C[C@H]2Oc3ccc(NC(=O)Cn4cnnn4)cc3CC(=O)N([C@@H](C)CO)C[C@@H]2C)cc1 | i |
| CCCC(=O)Nc1ccc2c(c1)C(=O)N(C)C[C@@H](OC)[C@@H](C)CN(Cc1ccccc1F)[C@@H](C)CO2 | i |
| CN(C)Cc1cn(CC[C@@H]2CC[C@@H](NS(=O)(=O)c3ccc(-c4ccccc4)cc3)[C@H](CO)O2)nn1 | i |

The list continues.
FGF22 binding	canonical_smiles
i	COc1ccc2c3c([nH]c2c1)[C@H](CO)N(Cc1cccnc1)CC31CCN(C(=O)CN(C)C)CC1
i	COc1cccc(NC(=O)N[C@@H]2CC[C@@H](CC(=O)N3CCOCC3)O[C@@H]2CO)c1
i	C[C@H]1CN([C@@H](C)CO)C(=O)Cc2cc(NC(=O)Cn3cnnn3)ccc2O[C@H]1CN(C)Cc1ccc(C(=O)Nc2ccccc2N)cc1
i	O=C(NC1CCC1)[C@H]1[C@H](CO)[C@H]2Cn3c(ccc(-c4ccncc4)c3=O)[C@@H]1N2Cc1cocn1
i	C[C@H]1CCCCO[C@H](CN(C)S(=O)(=O)c2cccs2)[C@@H](C)CN([C@@H](C)CO)C(=O)c2cc(NC(=O)c3ccccc3)ccc2O1
i	CC(C)CC#Cc1cnc2c(c1)C(=O)N([C@H](C)CO)C[C@@H](C)[C@@H](CN(C)Cc1ccccc1)O2
i	C[C@H]1CN([C@@H](C)CO)C(=O)Cc2cc(NC(=O)C3CC3)ccc2O[C@H]1CN(C)Cc1ccc(-c2ccccc2)cc1
i	C[C@H](CO)N1C[C@H](C)[C@@H](CN(C)C(=O)Nc2ccc(C(F)(F)F)cc2)OCCCC[C@H](C)Oc2ccc(NC(=O)Nc3ccccc3)cc2C1=O
i	C[C@H]1CN([C@@H](C)CO)S(=O)(=O)c2ccc(-c3cncnc3)cc2O[C@@H]1CN(C)Cc1ccccc1
i	COc1ccccc1-c1cnc2c(c1)C(=O)N([C@H](C)CO)C[C@H](C)[C@@H](CN(C)Cc1ccc(F)cc1)O2
i	C[C@@H]1CN([C@H](C)CO)S(=O)(=O)c2ccc(C3=CCCC3)cc2O[C@H]1CN(C)C(=O)CC1CC1
i	Cc1noc(C)c1S(=O)(=O)Nc1ccc2c(c1)C(=O)N([C@H](C)CO)C[C@H](C)[C@H](CN(C)C(=O)NC(C)C)O2
i	CC(C)NC(=O)N1CCCCN2[C@H](CO)[C@@H](c3ccc(C#C[C@@H](C)O)cc3)[C@@H]2C1
i	COCC(=O)N(C)C[C@H]1Oc2ncc(C#CCC3CCCC3)cc2C(=O)N([C@H](C)CO)C[C@@H]1C
i	CCCC(=O)N1CCC2(CC1)CN(C(=O)C1CC1)[C@@H](CO)c1[nH]c3cc(OC)ccc3c12
i	CS(=O)(=O)Nc1ccc2c(c1)[C@H]1C[C@@H](CC(=O)NCc3ccccn3)O[C@H](CO)[C@H]1O2
i	O=C(C[C@H]1C[C@H]2c3cc(NC(=O)Cc4ccncc4)ccc3O[C@H]2[C@H](CO)O1)NCCN1CCCCC1
i	C[C@@H]1CN([C@@H](C)CO)C(=O)Cc2cc(NC(=O)Nc3ccc(F)cc3)ccc2O[C@H]1CN(C)Cc1ccc(Cl)c(Cl)c1
i	C[C@H](CO)N1C[C@H](C)[C@@H](CN(C)S(=O)(=O)c2cccc(F)c2)Oc2ncc(C#CC3(O)CCCC3)cc2C1=O
i	C/C=C/c1ccc2c(c1)O[C@H](CN(C)C(=O)NC1CCCC1)[C@H](C)CN([C@@H](C)CO)S2(=O)=O
i	C[C@H](CO)N1C[C@H](C)[C@@H](CN(C)Cc2cncnc2)Oc2cc(C3=CCCC3)ccc2S1(=O)=O
i	C[C@@H]1CN([C@@H](C)CO)S(=O)(=O)c2ccc(-c3ccc(C(=O)N(C)C)cc3)cc2O[C@H]1CN(C)C(=O)C1CCC1
